VDR inh – inhibitors of human vitamin D receptor; Potency, µM, without a hit: max response, negative = inhibition, most hits filed as inhibitors; P11473; AID 504847; 0.93% of 400,000 active; VDR-SRC2-3 peptide fluorescence polarization, 2 h; active means well fitted inhibition curve with a large enough effect; inconclusive means small, poorly fitted or top-dose-only effect, or another doubt; inactive means no such curve, though single readings can be large or run the other way; further: series mostly up to about 120 µM
Target sequence (P11473 whole entry, looked up): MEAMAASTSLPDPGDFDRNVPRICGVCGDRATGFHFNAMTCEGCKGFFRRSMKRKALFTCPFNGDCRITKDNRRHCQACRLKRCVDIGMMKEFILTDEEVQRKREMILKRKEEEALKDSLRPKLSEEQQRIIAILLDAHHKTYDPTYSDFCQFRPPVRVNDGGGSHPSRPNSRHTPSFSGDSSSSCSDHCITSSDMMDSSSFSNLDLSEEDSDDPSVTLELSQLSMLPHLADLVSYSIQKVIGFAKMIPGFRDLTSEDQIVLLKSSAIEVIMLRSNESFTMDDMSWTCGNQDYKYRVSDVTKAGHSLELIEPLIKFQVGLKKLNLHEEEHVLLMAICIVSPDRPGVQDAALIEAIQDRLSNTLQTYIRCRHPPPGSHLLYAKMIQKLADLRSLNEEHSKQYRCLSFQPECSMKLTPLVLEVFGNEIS
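Measured by FP: displacement of SRC2-3 coactivator peptide from VDR by library compounds, following a two-hour ambient incubation.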
Active calls of the source: *; ? = inconclusive; & = joins results of further samples; [ ] = remark or other dose. On the % scale 0 is the no-effect control and ±100 the full control effect; potency means the concentration at half of the fitted maximal effect.

| Molecule | VDR inh |
| --- | --- |
| CCN(CC)C(=O)CN(Cc1ccccc1)S(=O)(=O)c1ccc(F)cc1 | -1% |
| O=C1S/C(=C\c2ccccc2)C(=O)N1CC(O)Cn1c2ccccc2c2ccccc21 (configuration not stated) | 11% |
| COc1ccc(NC(=O)CSc2ncccc2C(=O)O)cc1OC | 2% |
| CC(CCc1ccccc1)NC(=O)COC(=O)c1cc(NS(=O)(=O)c2ccc(Cl)c([N+](=O)[O-])c2)ccc1O (configuration not stated) | -8% |
| CCCNC(=O)COC(=O)c1ccc(-c2ccccc2)cc1 | -20% |
| COc1ccc(CCNC(=O)c2ccc([N+](=O)[O-])cc2)cc1 | -3% |
| O=C1OC(Nc2nccs2)c2ccccc21 (configuration not stated) | ? |
| CCOC(=O)CSC1=Nc2ccccc2C2=NC(CC(=O)NCc3cccs3)C(=O)N12 (configuration not stated) | -7% |
| CC(=O)N1CCC2(CCCN(c3ncccn3)C2)CC1 | 13% |
| COc1ccc(NC(=S)N(Cc2ccc(C)cc2)Cc2ccccn2)cc1 | -10% |
| O=C(Nc1ncccc1O)c1ccc2c(c1)OCCO2 | -8% |
| CCN(CC)C(=S)Nc1cc(C(=O)OC)ccc1C(=O)OC | 5% |
| Cn1ccnc1C(OC(=O)c1ccc(Cl)cc1)C(F)(F)F (configuration not stated) | 25% |
| CCOc1ccccc1NC(=O)COC(=O)C1CCC1 | -15% |
| CC(N)C(=O)NC(C(=O)N1CCCC1C(=O)NC(c1ccccc1)c1ccccc1)C(C)C (configuration not stated) | -13% |

Copied from the list.
Reading for CC(N)C(=O)NC(C(=O)N1CCCC1C(=O)NC(c1ccccc1)c1ccccc1)C(C)C (configuration not stated) in VDR inh: -13%
Reading for CCN(CC)C(=O)CN(Cc1ccccc1)S(=O)(=O)c1ccc(F)cc1 in VDR inh: -1%
Reading for O=C1S/C(=C\c2ccccc2)C(=O)N1CC(O)Cn1c2ccccc2c2ccccc21 (configuration not stated) in VDR inh: 11%

New compounds follow
| Molecule | VDR inh |
| --- | --- |
| CC(C)(C)N(Cc1ccccc1)C(=O)COC(=O)CCc1c[nH]c2ccccc12 | -1% |
| CCOC(=O)C1=C(C(F)(F)F)Nc2ncnn2C1c1ccc(OC)cc1OC (configuration not stated) | 0% |
| O=C(COC(=O)Cc1ccccc1F)Nc1ccc(Cl)cn1 | ? |
| Cc1cc2ccccn2c1C(=O)c1cccc(S(=O)(=O)N2CCOCC2)c1 | 4% |
| COc1ccc(C2Nc3ccccc3C(=O)N2NS(C)(=O)=O)cc1OC (configuration not stated) | -3% |
| Cc1ccc(N(Cc2cc3ccc(C)cc3[nH]c2=O)S(=O)(=O)c2ccccc2)c(C)c1 | 13% |
| Cc1ccc(C2CC(c3ccc(Cl)cc3)n3nc(N)nc3N2)cc1 (configuration not stated) | -19% |
| CC1CN(c2ccc(Oc3ccccc3)cc2)c2nc3c(c(=O)n(CC(N)=O)c(=O)n3C)n2C1 (configuration not stated) | 9% |
| COc1ccc(Cl)cc1NC(=O)CSC1=NN2CCCC(=O)N=C2S1 | -5% |
| Cc1ccc(NC(=O)C2CCCN(C(=O)Nc3ccc(F)cc3)C2)cc1 (configuration not stated) | 7% |
| Cc1noc(C)c1C(=O)Nc1cc(S(=O)(=O)N2CCCCC2)ccc1N(C)C | 4% |
| CCOc1cccc2cc(C(=O)NCc3cccnc3)c(=O)oc12 | -6% |
| CCCCOc1ccc(-c2ncc(C(=O)O)c(C)n2)cc1 | 9% |
| CCC1Sc2ccccc2N(CC(=O)NC2CCCCC2)C1=O (configuration not stated) | -13% |
| CC(C)(C)NC(=O)Cn1c(=O)oc2ccc(Cl)cc21 | -3% |
| Cc1cc(C)cc(N2C(=O)CSC2c2ccccn2)c1 (configuration not stated) | -9% |
| O=[N+]([O-])c1ccc(C2=Nn3c(Cn4nnc5ccccc54)nnc3SC2)cc1 | ? |
| CCn1ccnc1CNCc1cn(-c2cc(C)ccc2C)nc1-c1ccccc1 | -4% |
| O=C(COC(=O)CNC(=O)C1CCCCC1)Nc1cccc(F)c1 | -11% |
| Cc1cc(Br)ccc1NC(=O)CN(C)C(=O)c1cccc(S(=O)(=O)N2CCN(C)CC2)c1 | 9% |
| COc1ccc(-n2c(=O)c(CCC(=O)N(C)Cc3cccs3)nc3ccccc32)cc1 | -15% |
| O=[N+]([O-])c1ccc(N=Cc2sc3ccccc3c2O)cc1 | -8% |
| COCC(C)n1c(SCC(=O)N2CCOCC2)nc2ccccc2c1=O (configuration not stated) | -3% |
| C/C(=N\Nc1cc(Cl)nc(C)n1)c1ccc(C)cc1 | -2% |
| COc1cc(CC(=O)OCC(=O)Nc2ccc(Cl)c(S(=O)(=O)N(C)C)c2)cc(OC)c1OC | -17% |
| Cc1ccc(C(=O)c2oc3ccccc3c2NC(=O)c2cc(=O)c3ccccc3o2)cc1 | 9% |
| Cc1ccc(C(=O)CC(=O)COc2ccc(Cl)cc2)cc1 | -8% |
| O=C(Nc1ccsc1C(=O)NC1CCCCC1)c1ccccc1 | 3% |
| Cc1ccn2cc(CCNS(=O)(=O)c3ccc(F)c(C(F)(F)F)c3)nc2c1 | -15% |
| CCOc1cc(C(=O)CCC(=O)OCC(=O)Nc2ccc(F)cc2)ccc1O | 22% |
| CCOC(=O)c1ccc(NC(=O)C2=C(C)C(=O)OC23CCN(C(C)C)CC3)cc1 | -5% |
| CCc1ncc(CN2CCC(C(=O)Nc3cccc(-c4cscn4)c3)CC2)cn1 | 1% |
| COc1cc(C(=O)N(Cc2ccc(F)cc2)Cc2ccco2)cc(OC)c1OC | 5% |
| CC(=O)c1sc(NS(=O)(=O)c2ccc(C)cc2)nc1C | 3% |
| COc1ccc(N(C(=O)c2cccnc2)S(=O)(=O)c2ccc(F)cc2)cc1 | -6% |
| COc1ccc(S(=O)(=O)N(CC(=O)N2CCCCCC2)c2ccccc2OC)cc1 | 5% |
| Cc1ccc(NC(=O)COc2ccc(Br)cn2)cc1 | -2% |
| CCOc1ccc(N2C(=O)c3ccccc3C2=O)cc1 | 4% |
| NC(=O)C1=C(N=C2CCCCC2)CCCC1 | -26% |
| O=C(CCN1C(=O)CSc2ccccc21)Nc1ccc(C(F)(F)F)cc1 | -12% |
| COc1ccccc1NC(=O)CCN1CCN(Cc2ccccc2)CC1 | -8% |
| CCOC(=O)C(O)(CCC(O)(C(=O)OCC)C(=O)OCC)C(=O)OCC | 1% |
| COc1ccc(/C=C(\C#N)C(=O)NCc2ccccc2)cc1 | -5% |
| c1ccc(OCCn2c(-c3ccco3)nc3ccccc32)cc1 | -17% |
| Cn1c(SCC(=O)OCC(=O)c2ccccc2)nnc1-c1cccs1 | 18% |
| O=C(NC(=S)NCCCN1CCOCC1)c1ccco1 | -8% |
| O=C(Nc1nc(-c2ccccc2)cs1)c1ccccc1F | -12% |
| COc1ccc(CCNCc2csc3nc4ccccc4n23)cc1OC | 5% |
| CN(C)CCC(O)(c1ccccc1)c1ccccc1Cl (configuration not stated) | -15% |
| COc1cccc(C2=CC(=O)CC(c3ccco3)C2)c1 (configuration not stated) | ? |
| Cc1c(NC(=O)c2ccc(N(Cc3ccccc3)S(C)(=O)=O)cc2)c(=O)n(-c2ccccc2)n1C | 7% |
| OCCNCc1cccc(-c2ccccc2)c1O | -5% |
| O=C(NCc1ccc2c(c1)OCO2)c1ccc(C2SCC(=O)N2Cc2ccco2)cc1 (configuration not stated) | -14% |
| COc1ccccc1CNC(=O)COC(=O)CCN=C1NS(=O)(=O)c2ccccc21 | 3% |
| Cn1c(=O)c2[nH]c(NN=Cc3ccc(F)cc3)nc2n(C)c1=O | 4% |
| COc1ccc(C)cc1S(=O)(=O)N1CCN(C(=O)c2ncoc2-c2ccccc2F)CC1 | -3% |
| CCn1c(SCC(=O)Nc2cc(Cl)ccc2OC)nc2c([nH]c3ccccc32)c1=O | 7% |
| CC(C)C(=O)NCc1cc(-c2ccc(Cl)cc2)no1 | -18% |
| CCOC(=O)c1cnc2ccc(OC)cc2c1NCCc1ccc(OC)c(OC)c1 | 9%&2% |
| NC(=O)c1nsc(C(=O)N(c2cccc(F)c2)C(C(=O)NCC2CCCO2)c2c[nH]c3ccccc23)c1N (configuration not stated) | -2% |

Looked up by compound from the entries so far:
| Molecule | VDR inh |
| --- | --- |
| COc1ccc(CCNCc2csc3nc4ccccc4n23)cc1OC | 5% |
| O=C(NC(=S)NCCCN1CCOCC1)c1ccco1 | -8% |

Next part.
| Molecule | VDR inh |
| --- | --- |
| COc1cc(/C=C(/C#N)c2ccccc2)ccc1Oc1ccc([N+](=O)[O-])cn1 | -11% |
| C/C(=N\Nc1nccnc1Cl)c1ccc(Cl)c(Cl)c1 | -3% |
| COc1cc2c(c(OC)c1OC)C(=O)C(=Cc1ccccc1)O2 | -4% |
| CC(C)Oc1ccc(CC2CCC(=O)N(C)C2=O)cc1 (configuration not stated) | 0% |
| C/C(=N\NC(=O)COc1ccc(C)cc1[N+](=O)[O-])c1cccs1 | 5% |
| O=C(COc1ccc(Br)cc1)Nc1ccncc1 | ? |
| S=C(NCCc1ccccn1)Nc1ccccc1Cl | 11% |
| CC(=O)Nc1nc(=S)ss1 | 45µM* |
| O=C(c1ccc(NC2=NC3CS(=O)(=O)CC3S2)cc1)N1CCN(c2ccc(F)cc2)CC1 (configuration not stated) | -10% |
| N#CCCn1cc(C(N)=O)c(-c2cccs2)n1 | -16% |
| Fc1ccccc1COc1ccc(Br)cc1CNCc1ccncc1 | 1% |
| COc1ccc(NC(=O)CSC2=Nc3ccccc3C3=NC(CC(=O)NCCc4ccccc4)C(=O)N23)cc1 (configuration not stated) | 17% |
| COC(=O)c1ccccc1NC(=O)CSc1nnc(-c2ccncc2)o1 | -10% |
| CCN(CC(=O)Nc1ccc2c(c1)OCCO2)C(=O)c1cc(S(=O)(=O)N2CCOCC2)ccc1F | -11% |
| C/C(=N/Nc1ccccc1[N+](=O)[O-])c1ccc([N+](=O)[O-])cc1 | -6% |
| O=C(CN1C(=O)COc2ccccc21)N1CCc2ccccc21 | 17% |
| COc1ccc(-c2nn(-c3ccccc3)cc2/C=N/N=C(N)N)cc1OC | -8% |
| COc1ccc(N(C(=O)c2snc(C(N)=O)c2N)C(C(=O)NCc2ccccc2)c2ccc(O)cc2)cc1OC (configuration not stated) | -5% |
| CCOC(=O)C(=CNc1ccc(Oc2cccnc2)nc1)C(=O)OCC | -17% |
| Cc1cccc2c3c([nH]c12)CCNC3 | ? |
| CCOc1cc(CNCCc2ccc(S(N)(=O)=O)cc2)ccc1OCC(=O)NC(C)(C)C | 3% |
| CCOCCCn1c(SCC(=O)Nc2ccc(C(C)C)cc2)nc2c(sc3ccccc32)c1=O | -6% |
| O=C(CSc1n[nH]c(-c2ccccc2)n1)NC1CCCCC1 | 7% |
| O=C(Nc1nnc(CCOCCOCCc2nnc(NC(=O)c3ccco3)s2)s1)c1ccco1 | -9% |
| Cc1ccc(C(Sc2ccccc2)C(Cn2cncn2)C(=O)c2ccccc2)cc1 (configuration not stated) | -1% |
| O=c1nc(N2CCCCCC2)nc(N2CCCCCC2)[nH]1 | -13% |
| CCC1(C)COC(C)(CC(=O)NNC(=O)Nc2ccccc2)OC1 (configuration not stated) | -24% |
| O=C(NC1CC1)c1cc(Cl)nc2ccccc12 | -11% |
| CCOc1cc(N2CCOCC2)c(OCC)cc1NC(=O)C1CC(=O)N(c2ccccc2OCC)C1 (configuration not stated) | -12% |
| CC(OC(=O)c1nsc(Cl)c1Cl)C(=O)NC1CCCCC1 (configuration not stated) | -5% |
| Cc1ccc(N(c2ncnc(N)c2[N+](=O)[O-])C2CCCCC2)cc1 | 0% |
| COCCN1CC(C(=O)N2CCC(Oc3ccccc3OC)CC2)CCC1=O (configuration not stated) | -17% |
| O=C(CCCC(=O)Nc1cccc(Br)c1)N/N=C/c1cc([N+](=O)[O-])ccc1O | -1% |
| CC(=O)Nc1ccc(C(=O)OCC(=O)c2ccc(F)cc2)cc1 | -6% |
| Cc1nc2c(-c3ccccc3)c(C)nn2c(N)c1-c1ccccc1 | 5% |
| Cc1cc(NC(=O)CCC(=O)N(Cc2ccco2)C(C(=O)NC2CCCC2)c2ccccc2F)no1 (configuration not stated) | -9% |
| CC1(C)CC(NC(=O)c2sc3cc(Cl)ccc3c2Cl)CC(C)(C)N1 | 5% |
| Cn1sc(=O)c2cc(S(=O)(=O)NC3CC3)ccc21 | ? |
| CNC(=O)C1CCC(Cn2c(=O)c3sccc3n(CC(=O)NCc3ccccc3)c2=O)CC1 (configuration not stated) | 10% |
| COc1cccc(CNC(=O)CSc2nc(=O)n(Cc3ccncc3)c3c2CCC3)c1 | 4% |
| C=CCNC(=O)c1ccccc1NC(=O)c1ccccc1SC | -8% |
| CCOC(=O)c1scc(-c2ccc(C)cc2)c1S(=O)(=O)Nc1cc(OC)ccc1OC | 17% |
| Cn1c(=O)n(C)c2cc3[nH]cnc3cc21 | -25% |
| COc1ccc(CC(=O)OCC(=O)Nc2ccc(Cl)c(S(=O)(=O)N(C)C)c2)cc1 | ? |
| COc1ccc(CCNC(=O)COc2cc(O)c3c(c2)OC(C)(C)CC3=O)cc1 | -1% |

Exported field by field: three of the compounds above.
O=C(CCCC(=O)Nc1cccc(Br)c1)N/N=C/c1cc([N+](=O)[O-])ccc1O
  VDR inh: -1%
CC(=O)Nc1ccc(C(=O)OCC(=O)c2ccc(F)cc2)cc1
  VDR inh: -6%
Cc1nc2c(-c3ccccc3)c(C)nn2c(N)c1-c1ccccc1
  VDR inh: 5%

(further entries)
| Molecule | VDR inh |
| --- | --- |
| COC(=O)c1ccc(C(=S)N2CCCCC2)cc1 | 35%[activator] |
| Cc1nn(-c2ccccc2)c(Cl)c1/C=N/Nc1nnc(C)c(=O)[nH]1 | -4% |
| CC1=CC(C)(C)N2C(=O)C3(C(C#N)=C(N)Oc4cc(C)oc(=O)c43)c3cc(C)cc1c32 (configuration not stated) | 9% |
| O=C(Nc1ccc(Cl)cc1)N1CC=CCC1 | 13% |
| CCCCN(CCO)CCCC | 0% |

Reprinted from the entries so far (two entries):
| Molecule | VDR inh |
| --- | --- |
| O=C(Nc1ccc(Cl)cc1)N1CC=CCC1 | 13% |
| CCCCN(CCO)CCCC | 0% |

Not all compounds are listed (hit frequency here may not be typical).
